Calb FLC – affects C. albicans growth with fluconazole. C. albicans CaCi-2 (fluconazole-resistant clinical isolate) + fluconazole, Alamar Blue growth, 48 h. growth inhibition, % (no concentration beside the values). hit rate 0.57% among 300,000;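 active means most replicates above 75%; inconclusive means exactly half above 75%; inactive means most below 75%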;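 further: all wells also contain fluconazole at 8 µg/ml as a sub-toxic cotreatment; 0% = median of DMSO wells and 100% = median of geldanamycin control wells; wells of about 8 µL received 7.5 nL stock; the first replicate is given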
FGF22 binding – binders of recombinant human FGF22 by thermal shift. SYPRO orange fluorescence; percent of sucrose octasulfate shift, DMSO zero. hit rate 1.5% among 340,000. AID 651658. calls only at 9.99 µM;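 active means melting point raised past a set limit in the mean and every replicate; inconclusive means no clear call; three in four hits are not shown here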
Target sequence (Q9HCT0 whole entry, looked up): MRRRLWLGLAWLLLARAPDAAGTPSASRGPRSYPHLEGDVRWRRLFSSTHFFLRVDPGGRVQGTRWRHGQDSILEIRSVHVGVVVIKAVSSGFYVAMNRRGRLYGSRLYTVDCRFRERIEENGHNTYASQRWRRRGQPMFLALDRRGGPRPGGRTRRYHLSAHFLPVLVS
T cruzi inh – T. cruzi replication inhibition; T. cruzi beta-gal in NIH3T3, luminescence, 90 h; inhibition, % (no concentration beside the values); hit rate 1.4% among 300,000; AID 1885;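 active means mean inhibition across valid replicates above about 55%, limit read from the data; inconclusive means mean below that limit but half or more replicates reach it; inactive means mean below it, under half of replicates reach it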;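 further: signal also drops with host cell toxicity which is not excluded here; 0% = plate median of DMSO wells and 100% = zero luminescence signal; higher percent means less beta-gal luminescence so fewer parasites; stock transfer was 50 nL into about 50 µL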
Beta apoptosis – blocks beta cell apoptosis; protection from apoptosis, % (concentration not given with the values); INS-1E cytokine-induced death, ATP luminescence, 48 h; percent of positive-control rescue, neutral wells zero; hit rate 0.8% among 300,000;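 active means all replicates at 75% or more, or half of them and the mean; inconclusive means half reach 75% but not the mean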;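 further: 0% = cytokine-treated negative control wells and 100% = positive control rescue; higher means more ATP so stronger rescue from cytokine killing; wells of about 40 µL received 100 nL stock; the first replicate is given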
RanGTP-Imp inh – disruptors of Ran-importin-beta complex formation – biochemical, FRET, CFP-Ran, YFP-importin-beta, homogeneous, primary screen; hit rate 1.1% among 300,000; AID 2216; inhibition, % (concentration not given with the values); cell-free CFP-Ran/YFP-importin-beta FRET ratio;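 active means most replicates above 15%; inconclusive means exactly half above 15%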;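 further: 0% = DMSO wells and 100% = Ran loaded with GDP instead of GTP; wells of about 40 µL received 100 nL stock; the first replicate is given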
MLL AF4-AF9 inh – blocks AF4 peptide binding to human AF9 | hit rate 0.47% among 350,000 | AlphaScreen, biotin-AF4 peptide binding to FLAG-AF9 | P42568 | inhibition, % at 10 µM;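 active means every replicate reaching a set inhibition limit, whatever the replicate mean, cut at about 25% in these data; inconclusive means mean inhibition reaches that limit but some replicates miss it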;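 further: 0% = plate neutral control median and 100% = total signal loss; the record names both 10 and 1 µM as test concentration; the first replicate is given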
Target sequence (P42568 whole entry, looked up): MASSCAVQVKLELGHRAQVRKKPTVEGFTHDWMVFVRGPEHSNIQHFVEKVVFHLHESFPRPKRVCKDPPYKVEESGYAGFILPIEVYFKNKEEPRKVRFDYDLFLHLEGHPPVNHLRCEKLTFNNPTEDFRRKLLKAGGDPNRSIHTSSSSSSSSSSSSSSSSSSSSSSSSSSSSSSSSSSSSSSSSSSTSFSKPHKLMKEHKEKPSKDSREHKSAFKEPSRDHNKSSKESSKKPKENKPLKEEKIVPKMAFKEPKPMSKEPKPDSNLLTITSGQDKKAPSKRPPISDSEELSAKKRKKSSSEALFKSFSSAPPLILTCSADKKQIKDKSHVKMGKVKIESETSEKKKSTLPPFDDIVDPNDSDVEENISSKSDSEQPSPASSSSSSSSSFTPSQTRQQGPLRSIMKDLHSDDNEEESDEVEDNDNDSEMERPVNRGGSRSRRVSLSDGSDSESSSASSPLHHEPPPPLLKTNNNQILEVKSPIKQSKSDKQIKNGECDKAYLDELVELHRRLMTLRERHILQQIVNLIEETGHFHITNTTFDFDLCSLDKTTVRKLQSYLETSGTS
ALR H2O2 inh – blocks human ALR sulfhydryl oxidase activity. P55789. purified ALR, DTT oxidation, H2O2 HRP-luminol luminescence. inhibition, % (no concentration beside the values). hit rate 3.8% among 290,000. AID 485317;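 active means mean and each replicate at 75% or more; inconclusive means only one of the two met; inactive means neither met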;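 further: stock transfer was 7.5 nL into about 7.5 µL; 0% = neutral wells and 100% = wells with inactivated enzyme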
Target sequence (P55789 whole entry, looked up): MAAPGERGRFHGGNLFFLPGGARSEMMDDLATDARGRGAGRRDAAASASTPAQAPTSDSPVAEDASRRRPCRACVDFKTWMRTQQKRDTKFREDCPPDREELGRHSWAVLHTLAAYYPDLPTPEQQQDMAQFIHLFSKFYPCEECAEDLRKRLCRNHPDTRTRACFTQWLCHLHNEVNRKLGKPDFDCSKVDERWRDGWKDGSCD
rRNA inh HTS – inhibits bacterial ribosomal RNA function over humanized ribosomes. E. coli WT GFP vs humanized-ribosome RFP mutants, fluorescence, 24 h; stronger effect = lower value; DMSO median 0, no signal -100. GFP signal change (wild-type ribosome), % (test concentration not listed). hit rate 1.6% among 350,000. AID 720706;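 active means significant combined selectivity score with lowered wild-type GFP, culture density cut under 30%, mutant RFP and density less affected; inactive means any of these conditions unmet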; further: one replicate is shown; some compounds called inactive have numbers as strong as hits
rRNA inh HTS OD600 – further read-out of rRNA inh HTS, marked with its call; OD600 change, %; measured here: OD600 growth;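 optical density of the mix in the first replicate; 0 = DMSO median and -100 = no signal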
rRNA inh HTS RFP – also measured in rRNA inh HTS; calls as there; RFP signal change, %; measured here: RFP humanized mutant strains;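 first replicate; 0 = DMSO median and -100 = no signal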
Numbers without * were called inactive; i = inactive; ? = inconclusive; nt = no result given.

SMILES	Calb FLC	FGF22 binding	T cruzi inh	Beta apoptosis	RanGTP-Imp inh	MLL AF4-AF9 inh	ALR H2O2 inh	rRNA inh HTS	rRNA inh HTS OD600	rRNA inh HTS RFP
O=C(O)Cn1c(O)c(C2=c3ccccc3=NC2=O)sc1=O	-4.7	i	-8.3	-8.1	-9.5	-0.4	3.2	12.5	12.0	-0.6
CC(C)(C)c1ccc(OCC(=O)NNC(=S)NC(=O)c2ccco2)c(Br)c1	-9.0	i	20.6	13.2	0.5	-1.1	53.5	-16.6	-16.1	-5.1
Cc1ccc(-c2nnc(SCC(=O)CC(=O)Nc3ccccc3)n2-c2ccccc2)cc1	31.3	nt	0.4	2.0	-3.0	nt	-1.3	nt	nt	nt
CCS(=O)(=O)N1Cc2ccccc2CC1C(=O)NC(C)C12CC3CC(CC(C3)C1)C2 (centres undefined)	3.8	nt	4.1	5.2	-0.5	nt	0.3	nt	nt	nt
CCCn1c(=O)c(C(=O)NCc2ccccc2OC)c(O)c2ccccc21	5.6	i	6.1	2.6	-1.6	-0.9	-9.9	6.1	8.9	8.9
CCC(C)[C@H](NC(=O)NCc1cccc(OC)c1)C(=O)OC (some centres undefined)	-3.8	nt	-0.4	-2.2	0.9	nt	-2.5	nt	nt	nt
Cc1ccc(C(=O)CSC2=C(C#N)C(c3ccco3)CC(=O)N2)c(C)c1 (centres undefined)	21.1	nt	14.2	5.1	-95.8	nt	92.4*	nt	nt	nt
CCCCC1=CC2=C(c3ccco3)C(=O)C(C)(OC(=O)c3ccc(OC)cc3)C(=O)C2=CN1CCCCO (centres undefined)	22.5	i	-12.4	-6.1	-1.9	-9.6	nt	13.6	17.8	11.5
O=C(/C=C/c1ccccc1Cl)Nc1ccncc1	4.9	nt	-34.8	8.0	11.0	nt	-10.1	nt	nt	nt
COc1ccccc1/C=c1\sc2nc(-c3ccco3)nn2c1=O	-7.1	nt	15.8	-10.2	-3.0	nt	2.9	nt	nt	nt
Cc1cc(S(=O)(=O)N(Cc2cccs2)Cc2ccccc2F)ccc1-n1cnnn1	-9.7	i	26.6	-0.6	-4.2	-8.1	-3.7	nt	nt	nt
COc1ccc(C)cc1NC(=O)CN(C)S(=O)(=O)c1ccc2c(c1)n(C)c(=O)c(=O)n2C	1.5	i	-1.2	-2.8	-1.9	2.9	1.7	8.1	5.3	-1.3
CCOc1ccc(C2NC(=O)NC(C)=C2[N+](=O)[O-])cc1OC (centres undefined)	-0.8	i	-0.5	3.1	-2.2	-0.5	0.9	12.9	1.2	0.2
Cc1nonc1N1CCN(Cc2cn[nH]c2-c2ccc3c(c2)OCO3)CC1	-9.0	nt	3.7	-5.1	2.4	nt	-16.2	nt	nt	nt
CC(NC(=O)CN(c1cccc(C(F)(F)F)c1)S(=O)(=O)c1ccc(Cl)c([N+](=O)[O-])c1)c1ccccc1 (centres undefined)	2.6	i	5.0	6.5	1.6	2.2	0.2	7.5	-2.8	-11.9
CCOC(=O)c1c(C)nc(C)c(C(=O)OCC)c1-c1ccccc1	-4.7	i	13.2	-5.5	3.2	5.1	0.7	-40.8*	-26.5*	-15.7*
CCOC(=O)C1(CC2CCCCO2)CCN(S(=O)(=O)c2ccsc2)CC1 (centres undefined)	2.7	i	-7.4	-6.2	-5.0	-3.4	-26.0	2.9	9.1	-8.2
CCCCCN(C(=O)CCC(=O)OCc1ccc(Cl)cc1Cl)c1c(N)n(CCCC)c(=O)[nH]c1=O	8.5	i	18.3	4.8	0.9	-5.3	-8.8	2.0	7.6	-2.3
COc1cccc(CNC(=O)COC(=O)CCc2cc(OC)c(OC)c(OC)c2)c1	nt	i	nt	-2.9	nt	1.6	-13.7	-2.0	-5.9	4.9
Cc1ccccc1N1CCN(C2CCCN(C(=O)c3ccccn3)C2)CC1 (centres undefined)	-1.2	i	-6.1	-5.9	-2.9	-0.3	37.5	1.8	3.4	-2.9
CCN(CC(=O)Nc1ccccc1OC)C(=O)CC1CC2CCC1C2 (centres undefined)	nt	i	nt	-1.3	nt	-0.1	1.6	-7.7	-14.2	0.3
Cc1ccccc1C(=O)NNC(=S)NC(=O)c1ccc(Cl)cc1Cl	91.4*	i	-28.4	nt	-2.9	3.4	2.7	-58.1	-82.5	-23.0
O=C(O)c1cc(-c2cccc(Cl)c2)nc2nc(N3CCCCC3)sc12	25.6	nt	1.6	-0.6	-0.8	nt	nt	nt	nt	nt
O=C(c1ccc(N2CCOCC2)cc1)c1cccs1	-13.3	nt	-6.4	10.3	-0.9	nt	-1.9	nt	nt	nt
CCc1nc(N2CCN(C(C)=O)CC2)c2c3c(sc2n1)CC(C(C)(C)C)CC3 (centres undefined)	1.8	i	8.0	117.7*	-1.0	0.4	nt	-12.2	-9.1	0.2
CCCCC1=CC2=C(c3ccco3)C(=O)C(C)(OC(=O)c3ccc(OC)cc3)C(=O)C2=CN1C1CC1 (centres undefined)	17.0	i	-12.9	5.3	-8.3	-4.4	-16.7	7.2	10.0	0.6
CCCCCOC(=O)CSc1nnc(-c2cc(OC)c(OC)c(OC)c2)o1	3.6	nt	-5.0	-10.9	-1.8	nt	-2.8	nt	nt	nt
CC(C)c1nc(CNC(=O)CC2C(=O)NCCN2Cc2cccc(F)c2F)cs1 (centres undefined)	2.0	i	-12.0	1.3	-2.0	-1.1	0.1	2.2	-4.6	3.2
O=C(NC1CCCCC1)N(Cc1nc2ccccc2c(=O)[nH]1)C1CCCCC1	-1.4	nt	-16.4	3.0	2.7	nt	0.6	nt	nt	nt
CC(C)(C)NCC(=O)N/N=C/c1ccc(OCc2ccccc2)cc1	2.0	nt	-1.8	nt	4.6	1.8	-7.3	-1.3	-6.5	-0.2
N/C(=N\OC(=O)c1cccc2ccccc12)c1cccc([N+](=O)[O-])c1	-9.5	nt	12.6	-7.2	4.3	nt	-9.5	nt	nt	nt
O=C(NN=C1CCCC1)c1[nH]c2ccc(Cl)cc2c1-c1ccccc1	26.8	i	nt	6.4	3.6	-2.0	0.2	-15.1	3.0	-2.2
CSc1ccc(/C=C/C(=O)OCC(=O)NC2CC2)cc1	nt	i	nt	1.5	nt	2.8	-1.6	1.6	4.8	-0.1
Nc1nc(C2CCOCC2)cs1	-6.2	i	-14.8	-2.8	-2.5	-3.2	2.4	5.2	-9.6	-2.9
COc1ccc(C(=O)n2cnc3ccccc32)cc1Br	-4.6	i	-11.5	-8.3	3.4	-1.6	9.7	0.8	0.9	-1.5
CCCN(CC(=O)Nc1cc(Cl)ccc1Cl)C(=O)CN1C(=O)C2CCCCC2C1=O (centres undefined)	2.3	i	4.2	-0.7	-0.9	-0.7	-3.5	7.6	-5.5	4.3
O=C(Nc1ccc(S(=O)(=O)N2CCCCCC2)cc1)c1ccc(Br)o1	?	nt	-3.6	3.3	0.4	nt	nt	nt	nt	nt
Cc1ccc(N=Nc2ccc(O)c3ncccc23)cc1	?	i	57.3*	101.9*	-2.0	-0.4	-56.7	nt	nt	nt
O=c1[nH]cnc2nc(-c3ccccc3)c(-c3ccccc3)nc12	4.7	nt	2.9	-4.1	2.2	nt	-1.4	nt	nt	nt
Cc1cccc(NC(=S)N(Cc2cccs2)Cc2cc3cc(C)ccc3[nH]c2=O)c1	9.0	i	12.6	-8.1	2.3	3.9	-5.9	0.6	-1.6	1.0
O=C(c1ccccc1)c1ccc(OCCCN2CCCCC2)cc1	nt	nt	20.8	5.0	0.7	nt	-3.2	nt	nt	nt
O=c1[nH]c(SCc2nc3ccccc3c(=O)n2-c2ccccc2)nc2ccccc12	-2.2	nt	-2.7	6.3	0.2	nt	nt	nt	nt	nt
CC(C)C(OC(=O)Cn1nnc2ccccc21)C(=O)NC1CCCC1 (centres undefined)	-2.1	i	-3.4	-2.8	2.1	-0.1	1.8	2.9	7.4	0.1
COc1ccc(CNS(=O)(=O)NCc2ccc(OC)c(OC)c2)cc1OC	3.0	i	-3.5	-1.0	-1.3	-1.2	-1.8	14.8	7.6	2.6
COc1ccccc1-n1c(C)nnc1SCC(N)=O	3.8	nt	-32.5	-2.8	1.3	nt	2.3	nt	nt	nt
COc1ccc(NC(=O)c2cccc(Oc3ccccc3)c2)cn1	0.0	i	-9.3	-2.1	-0.1	-20.3	-0.9	-42.6	-70.3	-10.2
O=C(NCC1CCCO1)C(c1cccs1)N(C(=O)c1ccc(CN2CCOCC2)o1)c1ccc(Cl)cc1 (centres undefined)	-17.9	nt	-3.5	-8.7	?	nt	3.7	nt	nt	nt
COCCNC(=O)C(c1ccc(C)o1)N(C(=O)c1snc(C(N)=O)c1N)c1ccc(C)c(C)c1 (centres undefined)	11.7	nt	-6.8	-0.8	1.4	nt	-0.2	nt	nt	nt
O=C(N/N=C/c1ccncc1)c1cccc(S(=O)(=O)Nc2ccc(Cl)cc2)c1	8.6	i	1.7	4.3	-0.8	-9.2	-4.5	8.9	4.8	2.9
CCCN1C(=O)/C(=C/c2ccco2)SC1=Nc1ccc(OC)cc1	3.7	nt	8.5	3.9	6.3	nt	-4.7	nt	nt	nt
O=C(NNC(=O)C1COc2ccccc2O1)c1cccc([N+](=O)[O-])c1 (centres undefined)	26.9	nt	-6.2	-6.7	?	-14.5	4.6	7.2	4.1	0.0
COc1cc(NC(=O)c2cccnc2)c(Cl)cc1NC(=O)c1ccccc1	-0.6	i	-1.1	5.6	2.8	0.3	-16.8	2.7	3.1	2.3
O=C(NCc1cccnc1)/C(=C/c1ccc(Cl)cc1)NC(=O)c1ccccc1	5.9	i	-8.9	-0.8	2.3	4.0	60.7	1.2	-2.1	-1.4
COc1ccc(C2Nc3ccccc3C(=O)N2c2ccc(Cl)cc2)cc1Cn1cc([N+](=O)[O-])cn1 (centres undefined)	-5.7	i	6.3	0.9	0.3	-2.8	-1.3	-5.3	-7.8	0.9
COc1ccc(/C=C\C(=O)NCC(=O)N/N=C/c2ccc(O)cc2O)cc1	4.3	i	9.4	7.0	0.8	-1.0	nt	1.1	2.6	2.9
CCC(C(=O)Nc1cnccn1)c1ccccc1 (centres undefined)	-11.0	nt	1.7	-4.3	-2.2	nt	-1.7	nt	nt	nt

Following part:
SMILES	Calb FLC	FGF22 binding	T cruzi inh	Beta apoptosis	RanGTP-Imp inh	MLL AF4-AF9 inh	ALR H2O2 inh	rRNA inh HTS	rRNA inh HTS OD600	rRNA inh HTS RFP
CCCCCn1c(N)c(-c2nc3ccccc3o2)c2c([N+](=O)[O-])nn(C)c(=O)c21	-48.8	i	-5.1	-8.9	0.7	-1.2	-15.4	2.6	10.7	-0.6
COc1ccc(-c2nc3c(c(=O)[nH]c(=O)n3Cc3ccccc3)n2C)cc1	-1.8	nt	12.2	-2.7	-0.6	nt	-4.6	nt	nt	nt
FC(F)(F)c1ccccc1-n1ccnc1	nt	i	nt	-3.7	nt	-2.6	3.3	nt	nt	nt
CC1C/C(=N\NC(=S)NC(C)C)CC(C)(C)C1 (centres undefined)	1.1	nt	-23.2	-0.8	-0.2	nt	2.2	nt	nt	nt

Screening results deposited in PubChem by Broad Institute.

Some of the compounds tested, so the mix of outcomes need not match the whole.
